NS1 inh = blocks influenza NS1 protein function. S. cerevisiae slowed by influenza A NS1, growth recovery by OD600. Potency, µM (titrated, usually from 46.1 µM), without a hit: top-dose activity, positive = more growth. 0.4% of 270,000 active; active means well fitted rising curve with a large enough effect; inconclusive means small, poorly fitted or top-dose-only effect; inactive means no such curve, though single readings can be large or run the other way; further: nearly all actives have a fitted effect of over 50% in size
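S. cerevisiae expressing influenza A NS1, grown in glucose, washed, then diluted 1:100 into pH 6.0 -URA galactose medium with 23 nl compound. Growth recovery read as OD600; NS1-free strain serves as control.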
2A StopGo = FMDV 2A StopGo reporter, luciferase signal. human cells with a luciferase reporter of 2A StopGo recoding; control for the full effect not named in the record. AID 1159524. 1.2% of 410,000 active. Potency, µM (doses to about 57.9 µM), inactives show top-dose signal change, negative = less light; active = well fitted falling curve with a large enough effect; inconclusive = small, poorly fitted or top-dose-only effect; inactive = no such curve, though single readings can be large or run the other way; tested in HEK293T cells; further: on the % scale 0 is the no-effect control and ±100 the full control effect; nearly all actives have a fitted effect of over 45% in size; luciferase light after 4 h
Marburg entry inh = blocks Marburg virus binding to or entry into cells; AID 540276; 1.8% of 300,000 active; Marburg virus pseudotyped entry inhibition, cell reporter; control for the full effect not named in the record; about a third of the inactives were read at about 46 µM; Potency, µM (doses to about 37.8 µM), for the others: at the top dose activity change, negative = inhibition, most hits filed as inhibitors; active = well fitted inhibition curve with a large enough effect; inconclusive = small, poorly fitted or top-dose-only effect, or effect the other way; inactive = flat fitted curve, though single readings scatter; tested in HEK293 cells; about a fifth of its hits are not listed in these tables; further: on the % scale 0 is the no-effect control and ±100 the full control effect; luciferase read-out
Cruzain inh noDet = blocks cruzain activity in detergent-free assay | P25779 | purified cruzain, Z-FR-AMC fluorescence, no detergent | Potency, µM, inactives show max response, negative = inhibition, usual class: inhibitors | 2.3% of 200,000 active | AID 1476;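 further: plate controls were enzyme without inhibitor for no effect and buffer without enzyme for full effect; nearly all actives have a fitted effect of over 40% in size; top concentration of the series not given in the record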
Target sequence (P25779 123-467 limits assumed): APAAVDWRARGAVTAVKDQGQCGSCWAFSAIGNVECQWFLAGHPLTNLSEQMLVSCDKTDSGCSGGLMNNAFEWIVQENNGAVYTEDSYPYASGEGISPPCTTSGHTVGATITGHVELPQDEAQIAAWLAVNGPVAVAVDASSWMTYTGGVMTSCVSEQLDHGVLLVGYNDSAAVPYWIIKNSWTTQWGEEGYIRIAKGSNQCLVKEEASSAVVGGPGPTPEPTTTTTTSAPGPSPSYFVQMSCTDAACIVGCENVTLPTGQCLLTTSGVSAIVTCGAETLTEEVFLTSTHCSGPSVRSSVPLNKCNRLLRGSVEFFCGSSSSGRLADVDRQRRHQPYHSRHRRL
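Detergent-free condition (0.00005% Triton X-100) in acetate buffer pH 5.5 with DTT. 1.5 nM enzyme and compound were pre-mixed 15 min, then 2 uM Z-FR-AMC substrate added; reaction progress from fluorescence change between first and third reads (60 s).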
RE007 growth inh = less growth of the S. pombe RE007 Vpr strain. S. pombe RE007 Vpr strain, BacTiter-Glo ATP luminescence, 24 h; control for the full effect not named in the record. Potency, µM (doses to about 92.2 µM), without a hit: at the highest dose activity change, negative = less growth. 0.21% of 360,000 active. AID 651644; active = well fitted falling curve with a large enough effect; inconclusive = small, poorly fitted or top-dose-only effect; inactive = no such curve, though single readings can be large or run the other way;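 further: on the % scale 0 is the no-effect control and ±100 the full control effect; nearly all actives have a fitted effect of over 50% in size; the assay follows cell death caused by Vpr and the record does not say whether a fall means rescue or toxicity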
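Fission yeast RE007 carrying one integrated HIV-1 vpr copy, seeded at OD 0.01 in PMG+AL medium with 23 nL pinned compound. Grown 24 h at 30 degrees; viability read by BacTiter-Glo luminescence after 5 min.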
Lassa entry inh = Lassa virus entry inhibition; Lassa virus pseudotype entry inhibition, cell reporter; control for the full effect not named in the record; Potency, µM (series often up to 37.9 µM), inactives show top-dose activity change, negative = inhibition, usual class: inhibitors; 1.2% of 300,000 active; active means well fitted inhibition curve with a large enough effect; inconclusive means small, poorly fitted or top-dose-only effect, or effect the other way; inactive means flat fitted curve, though single readings scatter; tested in HEK293 cells; further: on the % scale 0 is the no-effect control and ±100 the full control effect; nearly all actives have a fitted effect of over 50% in size; luciferase read-out
SARS PLP yeast = blocks SARS-CoV papain-like protease in a yeast assay; S. cerevisiae expressing SARS-CoV PLpro, growth rescue; control for the full effect not named in the record; Potency, µM (titrated, usually from 32.9 µM), without a hit: top-dose activity, positive = growth rescue; 0.19% of 330,000 active; AID 485353; active means well fitted rising curve with a large enough effect; inconclusive means small, poorly fitted or top-dose-only effect; inactive means no such curve, though single readings can be large or run the other way; further: 0% is about no effect; nearly all actives have a fitted effect of over 55% in size; growth read by luminescence after 48 h
Cruzain Triton = cruzain (T. cruzi) inhibition with detergent | P25779 | purified cruzain, Z-FR-AMC fluorescence, 0.01% Triton | 0.43% of 200,000 active | Potency, µM, inactives show max response, negative = inhibition, usual class: inhibitors;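 further: plate controls were neutral wells for no effect and buffer without enzyme for full effect; nearly all actives have a fitted effect of over 40% in size; top concentration of the series not given in the record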
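Purified cruzain (1.5 nM final) was preincubated with compounds for 15 min at room temperature in 100 mM sodium acetate pH 5.5, 5 mM DTT, 0.01% Triton X-100. Reaction started with 2 uM Z-FR-AMC; AMC fluorescence change over 60 s gave activity.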
* marks the source's active call; other numbers are inactive results; [ ] = remark or other dose. Unless noted, the call rests on the fitted dose curve; in most records, active means well fitted curve in the direction sought with a large enough effect; inconclusive means small, poorly fitted or top-dose-only effect, or another doubt; inactive means no such curve, though single readings can be large; an effect the other way counts as inactive or inconclusive. Potency means the concentration at half of the fitted maximal effect.

`CCOC(=O)C1CCCN(c2c(NCCN3CCCCC3CC)c(=O)c2=O)C1` (stereo not given) gave NS1 inh 1.0%, 2A StopGo -23.7%, Cruzain inh noDet -16.3%, RE007 growth inh -5.5%, SARS PLP yeast 6.9% and Cruzain Triton -1.7%.
Screening O=C(NCC1CCOCC1)C1CCC(=O)N(Cc2cccc(C(F)(F)F)c2)C1 (stereo not given) returned NS1 inh 1.3%, 2A StopGo 7.8%, RE007 growth inh 3.4% and SARS PLP yeast 0.6%.
CCN(c1ccccc1)S(=O)(=O)c1cccc(C(=O)NCC(c2cccs2)N2CCOCC2)c1 (stereo not given) was read as 2A StopGo -25.0%, Marburg entry inh -51.0%, RE007 growth inh 5.5%, Lassa entry inh inconclusive and SARS PLP yeast 4.5%.
COCCCNC(=O)CCCN1C(=O)CCn2nc(-c3cn(C)c4ccccc34)cc21 was read as 2A StopGo -13.1%, Cruzain inh noDet 6.6%, Lassa entry inh -3.8%[46.1 µM] and Cruzain Triton -0.7%.
`COc1ccc(/C=C/C(=O)Oc2ccc(/C=N/NC(=O)c3ccccc3)cc2)cc1OC` gave NS1 inh 1.4%, 2A StopGo 20.0%, Marburg entry inh 3.3%, Cruzain inh noDet 28.8%, RE007 growth inh 10.2%, Lassa entry inh inconclusive, SARS PLP yeast 13.2% and Cruzain Triton 0.1%.
Screening O=C(Nc1cccnc1)c1ccc2ccccc2c1O returned NS1 inh -155.2%, 2A StopGo 26.9%, Marburg entry inh inconclusive, RE007 growth inh inconclusive, Lassa entry inh -17.9% and SARS PLP yeast -29.0%.
Screening Cn1c(N)c(C(=O)COC(=O)CCCN2C(=O)c3ccccc3C2=O)c(=O)n(C)c1=O returned 2A StopGo -14.5%, Marburg entry inh 3.9%[46.1 µM], RE007 growth inh 12.0%, Lassa entry inh 14.4%[46.1 µM] and SARS PLP yeast 0.9%.
For CC(=O)Nc1cccc(Oc2ccc(-c3noc(C)n3)cc2)c1 the results were NS1 inh -88.4%, 2A StopGo 9.1%, Marburg entry inh inconclusive, Cruzain inh noDet 8.7%, RE007 growth inh 15.8%, Lassa entry inh inconclusive, SARS PLP yeast -10.5% and Cruzain Triton 3.8%.
COc1ccc(OC)c(CNC(=O)C2CCCN(S(=O)(=O)N3CC(C)CC(C)C3)C2)c1 (stereo not given) was read as NS1 inh -4.6%, 2A StopGo -17.2%, RE007 growth inh -11.4% and SARS PLP yeast -2.1%.
For O=c1c2ccccc2nc(SCc2nc3ccccc3s2)n1Cc1ccco1 the results were NS1 inh -4.9%, 2A StopGo -16.4%, Marburg entry inh inconclusive, Cruzain inh noDet inconclusive, RE007 growth inh 10.8%, Lassa entry inh -25.9%, SARS PLP yeast -6.2% and Cruzain Triton 0.7%.
Screening NC(=O)C(c1ccccc1)C1CCCC1 (stereo not given) returned NS1 inh -7.7%, 2A StopGo 0.0%, Marburg entry inh 23.7%, Cruzain inh noDet -1.2%, RE007 growth inh 6.8%, Lassa entry inh -0.7%, SARS PLP yeast -4.3% and Cruzain Triton 4.3%.
For CN1CCN(C(=S)c2ccc(OCC(=O)Nc3cccc(C(F)(F)F)c3)cc2)CC1 the results were NS1 inh -1.3%, 2A StopGo 20µM*, Marburg entry inh inconclusive, Cruzain inh noDet 15.9%, RE007 growth inh -3.3%, Lassa entry inh inconclusive, SARS PLP yeast 22.6% and Cruzain Triton -3.1%.
For O=C(Cc1ccccc1[N+](=O)[O-])Nc1ccc2c(c1)OCCO2 the results were NS1 inh -6.7%, 2A StopGo 25.0%, Marburg entry inh -10.2%, Cruzain inh noDet 10.6%, RE007 growth inh 1.7%, Lassa entry inh inconclusive, SARS PLP yeast 8.2% and Cruzain Triton -3.8%.
Cc1ccc(Cn2c(SCC(N)=O)nc3c2c(=O)n(C)c(=O)n3C)cc1 was read as NS1 inh -7.7%, Marburg entry inh 6.0%, Cruzain inh noDet 1.3%, RE007 growth inh 5.8%, Lassa entry inh 0.0%, SARS PLP yeast 4.8% and Cruzain Triton -1.8%.
CCCc1cc(=O)n2nc(N3CCC(C(=O)Nc4cccc(C(C)=O)c4)CC3)sc2n1 was read as NS1 inh 2.1%, 2A StopGo -4.2%, RE007 growth inh -14.7% and SARS PLP yeast 0.6%.
`COc1ccc(OCC(O)CNC(=O)Nc2ccc(F)cc2)cc1` (stereo not given) gave NS1 inh 1.8%, 2A StopGo 10.8%, Marburg entry inh 13.7%[46.1 µM], RE007 growth inh 1.3%, Lassa entry inh -20.1% and SARS PLP yeast -0.8%.
CC(C)NC(=O)NC(=O)CSc1nncs1 was read as 2A StopGo 1.1%, Marburg entry inh -1.1%[46.1 µM], RE007 growth inh 3.3%, Lassa entry inh 15.2%[46.1 µM] and SARS PLP yeast 0.7%.
Screening COc1ccc2[nH]c(=O)c(CN(CC3CCCO3)C(=S)Nc3cccc(C)c3)cc2c1 (stereo not given) returned NS1 inh 6.0%, 2A StopGo -25.9%, Marburg entry inh 1.0%[46.1 µM], RE007 growth inh -6.1% and SARS PLP yeast 0.4%.
`Cn1c(=O)c(=O)n(C)c2cc(NS(=O)(=O)c3ccc(Br)cc3)c(Cl)cc21` gave 2A StopGo 25.6%, Marburg entry inh -12.9%[46.1 µM], Cruzain inh noDet -5.1%, Lassa entry inh -0.6%[46.1 µM] and Cruzain Triton -1.1%.
Cc1cc(C)n(-c2ccc(C(=O)NCc3ccc4c(c3)OCO4)cc2)n1 was read as NS1 inh -41.9%, 2A StopGo 24.1%, Marburg entry inh -22.3%, Cruzain inh noDet -0.7%, RE007 growth inh 2.2%, Lassa entry inh -16.5%, SARS PLP yeast -1.7% and Cruzain Triton -0.8%.
Screening CCOc1ccc(N2CC(c3nc4ccccc4n3CC(C)C)CC2=O)cc1 (stereo not given) returned 2A StopGo -9.4%, Marburg entry inh -5.3%[46.1 µM], Cruzain inh noDet 18.8%, Lassa entry inh -9.8%[46.1 µM] and Cruzain Triton -5.4%.
Screening Cc1ccc2nc(-c3ccsc3)c(Nc3ccccc3C)n2c1 returned 2A StopGo inconclusive, Marburg entry inh -15.7%[46.1 µM], Cruzain inh noDet -3.4%, Lassa entry inh -24.6%[46.1 µM] and Cruzain Triton -10.5%.
For CCOC(=O)N1CCN(S(=O)(=O)N2CCCC(C(=O)NCCCN3CCC(C)CC3)C2)CC1 (stereo not given) the results were NS1 inh -1.9%, 2A StopGo 47.0%[activator], RE007 growth inh -5.6% and SARS PLP yeast -1.7%.
Screening CC(=O)c1cc(-c2ccc(F)cc2)n(CCC(=O)Nc2cccc(C)n2)c1C returned 2A StopGo -18.2%, Marburg entry inh inconclusive, RE007 growth inh 2.4%, Lassa entry inh -1.7%[46.1 µM] and SARS PLP yeast 0.5%.
For OC(COc1ccc(CNCCc2ccc(C(F)(F)F)cc2)cc1)CN1CCCCC1 (stereo not given) the results were NS1 inh 5.0%, 2A StopGo -21.7%, Marburg entry inh inconclusive, RE007 growth inh -22.2%, Lassa entry inh inconclusive and SARS PLP yeast -0.2%.
`COc1ccc(/C=N/NC(=O)CCC(=O)Nc2ccccc2)cc1OC` gave NS1 inh 1.1%, 2A StopGo 4.1%, Marburg entry inh -0.6%, Cruzain inh noDet -7.2%, RE007 growth inh -8.7%, Lassa entry inh -21.2%, SARS PLP yeast -9.4% and Cruzain Triton -1.6%.
`O=C(C1CCN(c2nc3nonc3nc2N2CCCCC2)CC1)N1CCOCC1` gave NS1 inh 3.8%, 2A StopGo -4.7%, Marburg entry inh -8.2%[46.1 µM], RE007 growth inh 11.5%, Lassa entry inh 17.7%[46.1 µM] and SARS PLP yeast 0.5%.
For COc1ccc(-c2cc3ncc(-c4ccccc4)c(N)n3n2)cc1 the results were NS1 inh -2.0%, 2A StopGo 11.0%, Marburg entry inh inconclusive, RE007 growth inh -25.9%, Lassa entry inh -27.0%[46.1 µM] and SARS PLP yeast -0.9%.
COc1cc(OC)cc(C(=O)NCC(=O)Nc2ccc(-c3ccccc3)cc2)c1 was read as NS1 inh 2.6%, 2A StopGo 11.5%, Marburg entry inh inconclusive, RE007 growth inh 9.8%, Lassa entry inh -27.1%[46.1 µM] and SARS PLP yeast -0.3%.
Screening CCCCNC(=O)CCn1c(=O)c2ccccc2n(Cc2cccc(Cl)c2)c1=O returned 2A StopGo -3.5%, Marburg entry inh -0.3%[46.1 µM], Cruzain inh noDet 8.1%, Lassa entry inh 0.5%[46.1 µM] and Cruzain Triton -1.2%.
For O=C(COc1ccc2ccc(=O)oc2c1)NCCCn1ccnc1 the results were NS1 inh -4.1%, 2A StopGo -4.6%, Marburg entry inh 26.1%[46.1 µM], RE007 growth inh 6.0%, Lassa entry inh -1.3%[46.1 µM] and SARS PLP yeast 13.4%.
`COc1ccc(CNC(=O)COC(=O)c2cc3ccccc3o2)cc1` gave 2A StopGo 1.2%, Marburg entry inh inconclusive, RE007 growth inh 3.5%, Lassa entry inh inconclusive and SARS PLP yeast -4.1%.
`COc1ccc2cc(C(=O)C3CCCN(C4CCOCC4)C3)ccc2c1` (stereo not given) gave NS1 inh -2.3%, 2A StopGo 1.7%, Marburg entry inh 7.94µM*, RE007 growth inh -15.4%, Lassa entry inh 1.7%[46.1 µM] and SARS PLP yeast 0.1%.
Screening C(=C\CSc1nnnn1-c1ccccc1)/CSc1nnnn1-c1ccccc1 returned NS1 inh 5.5%, 2A StopGo -7.4%, Marburg entry inh 7.8%, Cruzain inh noDet -0.1%, RE007 growth inh -3.4%, Lassa entry inh -7.1%, SARS PLP yeast -8.6% and Cruzain Triton -1.0%.
CN(C)S(=O)(=O)N(CC(=O)N(Cc1ccccc1)Cc1ccccc1)c1ccccc1 was read as NS1 inh -1.9%, 2A StopGo -27.7%, Marburg entry inh -3.6%, Cruzain inh noDet -4.9%, RE007 growth inh -2.3%, Lassa entry inh inconclusive, SARS PLP yeast -6.4% and Cruzain Triton -7.9%.
For O=C(CSc1nc(C(F)(F)F)cc(=O)[nH]1)NCC1CCCO1 (stereo not given) the results were 2A StopGo -13.8%, Marburg entry inh -1.8%, RE007 growth inh 13.2%, Lassa entry inh 8.6% and SARS PLP yeast -2.5%.
CCOC(=O)C1CCN(C(=O)C2CCCN(c3ncnc4c3nc3n4CCCCC3)C2)CC1 (stereo not given) was read as NS1 inh -15.3%, 2A StopGo -26.6%, RE007 growth inh -8.7% and SARS PLP yeast -1.3%.
Screening COc1cccc(NC(=O)CSc2nnc(-c3cc(C)n(-c4ccccc4)c3C)o2)c1 returned NS1 inh -41.2%, 2A StopGo 12.6µM*, Marburg entry inh inconclusive, Cruzain inh noDet 2.6%, RE007 growth inh 2.2%, Lassa entry inh 13.6%, SARS PLP yeast -3.0% and Cruzain Triton 1.7%.

Rows were taken by chance, and some 4.7% of all compounds hit somewhere here.
